CtBP-E1A inh: qHTS Assay for Inhibitors of the CtBP/E1A Interaction; AlphaScreen GST-E1A/His-CtBP binding, 1536-well; active compounds read low; control for the full effect not named in the record; activity change, % (test concentration not listed); 340,000 compounds, 0.49% hits; in the data active means activity change below about -65%; inconclusive means about -30% to -65%; inactive means above about -30%; further: on the % scale 0 is the no-effect control and ±100 the full control effect
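AlphaScreen with 125 nM GST-E1A and 125 nM His-CtBP (5X stocks) in Tris pH 8.0, 300 mM NaCl, BSA, Tween 20, TCEP. Compounds preincubated 2 h at 37 deg C, then glutathione donor/nickel acceptor beads added for 1 h at 37 deg C in dark.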
TRPV1 potentiator: HTS Assay for Compounds that Act as Potentiators of the Vanilloid Receptor 1; potentiation, % at 8.33 µM; AID 540277, 2011; Transient receptor potential cation channel subfamily V member 1 (Homo sapiens), Q8NER1; TRPV1-expressing cells, Fluo-8 calcium influx, capsaicin EC20 potentiation; host cell line not named in the record; control for the full effect not named in the record; 320,000 compounds, 0.02% hits; active means potentiation above 80%; inconclusive means 30% to 80%; inactive means below 30%; further: 0% is about no effect
Target sequence (Q8NER1 whole entry, looked up): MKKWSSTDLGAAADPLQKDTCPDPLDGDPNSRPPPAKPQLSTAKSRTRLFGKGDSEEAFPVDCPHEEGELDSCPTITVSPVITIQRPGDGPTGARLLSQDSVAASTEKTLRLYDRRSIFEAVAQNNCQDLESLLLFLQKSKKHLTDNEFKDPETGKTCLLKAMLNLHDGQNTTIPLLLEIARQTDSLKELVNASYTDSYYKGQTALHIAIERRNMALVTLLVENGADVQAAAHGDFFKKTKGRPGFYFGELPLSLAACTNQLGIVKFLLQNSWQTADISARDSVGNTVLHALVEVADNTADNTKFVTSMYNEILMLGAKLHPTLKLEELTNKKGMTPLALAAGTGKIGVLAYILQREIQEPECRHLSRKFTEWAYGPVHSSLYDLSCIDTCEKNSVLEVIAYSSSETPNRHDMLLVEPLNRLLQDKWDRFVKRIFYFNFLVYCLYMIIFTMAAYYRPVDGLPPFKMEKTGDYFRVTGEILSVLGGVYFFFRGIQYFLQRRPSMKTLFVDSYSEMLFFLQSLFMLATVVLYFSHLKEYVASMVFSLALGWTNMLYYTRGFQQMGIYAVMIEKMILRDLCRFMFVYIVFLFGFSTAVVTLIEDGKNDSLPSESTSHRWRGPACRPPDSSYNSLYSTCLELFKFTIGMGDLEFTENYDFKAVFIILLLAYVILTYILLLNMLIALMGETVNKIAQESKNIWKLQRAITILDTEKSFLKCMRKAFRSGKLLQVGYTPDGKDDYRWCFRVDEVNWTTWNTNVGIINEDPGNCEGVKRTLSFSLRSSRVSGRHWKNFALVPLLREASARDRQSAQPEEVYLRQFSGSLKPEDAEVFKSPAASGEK
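TRPV1-expressing cells were cultured overnight at 35.5C and loaded with Fluo-8 calcium dye for 40 to 90 min at room temperature. After a 10 s baseline, compound was added and calcium influx was read kinetically for 3 min (ex 480/em 520 nm).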
gsp antagonist: qHTS for Antagonists of gsp, the Etiologic Mutation Responsible for Fibrous Dysplasia/McCune-Albright Syndrome: qHTS; gsp-mutant cells, cAMP HTRF, 30 min; control for the full effect not named in the record; Potency, µM (highest dose often 76.9 µM), for the others: at the highest dose activity change, negative = inhibition, usual class: inhibitors; 340,000 compounds, 0.4% hits; AID 624288, 2012; active = falling curve of any shape with a large fitted effect; inconclusive = falling curve, mostly with a smaller effect; inactive = flat or rising curve; cell line not stated here;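 further: intracellular cAMP measured with PDE inhibitor Ro 20-1724 present during compound exposure; potency means the concentration at half of the fitted maximal effect; on the % scale 0 is the no-effect control and ±100 the full control effect; nearly all actives have a fitted effect of over 65% in size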
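Cells in G418 medium, seeded 16-24 h, 37C; buffer exchange to DPBS + 1 mM CaCl2, 0.5 mM MgCl2, 0.05% BSA; cpds in DMSO + […] (300 uM stock), 30 min 37C; HTRF cAMP detection.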
Menin-MLL FL inh: qHTS Assay for Inhibitors Targeting the Menin-MLL Interaction in MLL Related Leukemias: Competition With Fluorescein Labeled MLL-derived Peptide | Fluorescence polarization, fluorescein-MLL peptide displacement from menin | FP activity change, % at 61.4 µM | 290,000 tested, under 10 active | AID 1766, 2009; inconclusive = falling polarisation curve, or a change in total fluorescence; inactive = total fluorescence flat and polarisation flat or rising; no compound was filed as active; the % refers to the polarisation; negative = inhibition;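 further: % of control where 0% means no effect; inhibitors lower the polarisation; unlabelled MLL peptide was the positive control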
gsp agonist: qHTS for Agonist of gsp, the Etiologic Mutation Responsible for Fibrous Dysplasia/McCune-Albright Syndrome: qHTS; gsp mutant cells, cAMP HTRF, 30 min; control for the full effect not named in the record; Potency, µM (highest dose often 76.9 µM), without a hit: at the highest dose activation (cAMP increase), actives largely listed as activators; 340,000 compounds, 0.13% hits; AID 624287, 2012; active = well fitted activation curve with a large enough effect; inconclusive = small, poorly fitted or top-dose-only effect, or another doubt; inactive = no such curve, though single readings can be large or run the other way; cell line not stated here;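 further: phosphodiesterase inhibitor Ro 20-1724 added with compounds to block cAMP breakdown; potency means the concentration at half of the fitted maximal effect; nearly all actives have a fitted effect of over 60% in size; about a fifth of the inactives were tested at one dose only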
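Cells in DMEM/10% FBS with G418 were pretreated with compounds in DMSO plus […] (300 uM stock) for 30 min at 37C. cAMP was measured by HTRF (cAMP-d2 plus anti-cAMP antibody-K) after 30 min at room temperature.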
Sfp inh: qHTS Assay for Inhibitors of Bacillus subtilis Sfp phosphopantetheinyl transferase (PPTase) | Biochemical Sfp PPTase activity, qHTS | AID 1490, 2009 | 310,000 compounds, 3.5% hits | 4'-phosphopantetheinyl transferase ffp (Bacillus subtilis), Q9F4F7 | Potency, µM, inactives show max response, negative = inhibition, most hits filed as inhibitors; active means well fitted inhibition curve with a large enough effect; inconclusive means small, poorly fitted or top-dose-only effect, or another doubt; inactive means no such curve, though single readings can be large or run the other way;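 further: the enzyme is Sfp with the accession as filed and its product quenches rhodamine fluorescence; potency means the concentration at half of the fitted maximal effect; 0% = enzyme reaction without inhibitor and -100% = no enzyme wells; top concentration of the series not given in the record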
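Buffer: 50 mM Hepes-Na pH 7.6, 10 mM MgCl2, 0.01% Nonidet P-40, 0.01% BSA. Enzyme 15 nM, pre-exposed to compound 15 min; substrates then added and fluorescence change tracked over 30 min.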
ClpP mod: qHTS Assay for Activators of ClpP | ATP-dependent Clp protease proteolytic subunit (Bacillus subtilis (strain 168)), P80244 | purified B. subtilis ClpP, FRET peptide cleavage, 20 min | Potency, µM (series often up to 57.5 µM), for the others: top-dose activity change, negative = active | 340,000 compounds, 1.9% hits | AID 651965, 2013; active = well fitted falling curve with a large enough effect; inconclusive = small, poorly fitted or top-dose-only effect; inactive = no such curve, though single readings can be large or run the other way; further: potency means the concentration at half of the fitted maximal effect; the source files actives as falling curves though it sought activators and does not explain the sign; nearly all actives have a fitted effect of over 65% in size; many hits overshoot -100%
Target sequence (P80244 whole entry, looked up): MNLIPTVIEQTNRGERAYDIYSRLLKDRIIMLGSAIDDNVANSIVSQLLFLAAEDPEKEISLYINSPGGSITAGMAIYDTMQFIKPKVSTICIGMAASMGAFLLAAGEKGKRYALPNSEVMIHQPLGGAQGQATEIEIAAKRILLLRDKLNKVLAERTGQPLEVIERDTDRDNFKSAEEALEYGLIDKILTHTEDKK
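ClpP 10 microg/mL final, pH 8 Tris/KCl buffer with BSA, glycerol, Tween-20; compound pinned in; FRET-FV substrate; RT 20 min; Ex320/Em430; ΔFRET vs ADEP 5.8 microM, DMSO, no enzyme.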
Starred values were filed as active, the others as inactive; ? = inconclusive; nt = not tested or not shown; [ ] = dose if it differs, or a comment. Rows were taken by chance; overall some 5.3% were active at least once.

SMILES	CtBP-E1A inh	TRPV1 potentiator	gsp antagonist	Menin-MLL FL inh	gsp agonist	Sfp inh	ClpP mod
CCOC(=O)c1ccc(NC(=S)NC(=O)c2nn(CC)cc2Br)cc1	13.5	10.7	4.8%	7.2	10.3%	1.1%	-0.1%
COc1ccc(Oc2nc(-c3ccccc3)ncc2S(=O)(=O)c2ccccc2)cc1	2.2	1.1	-0.2%	3.1	-4.5%	-18.0%	-23.7%
NS(=O)(=O)OCC(Cc1ccccc1)N1C(=O)c2ccccc2C1=O (centres undefined)	1.9	-3.7	-2.7%	-6.0	-21.4%	11.4%	1.9%
CCOc1cc(C(=O)Nc2nnc(CC)s2)ccc1OCC(=O)N1CCOCC1	2.5	14.1	-3.7%	1.1	-0.2%	18.2%	-6.4%
CCc1ccc(NC(=O)CSc2nnc(CNC(=O)c3c(F)cccc3Cl)o2)cc1	0.2	1.4	-6.3%	0.3	11.8%	8.5%	-10.0%
O=c1cc(CSc2nnc(NC3CCCCC3)s2)nc2sccn12	-3.1	12.4	-1.4%	-1.2	22.2%	15.7%	nt
FC(F)(F)c1ccnc(NCc2ccc(Cl)cc2)n1	19.0	?	9.3%	4.5	-9.6%[15.4 µM]	11.5%	nt
Cc1oc2cc(Br)c(O)c(Br)c2c1-c1ccccc1	10.3	-8.2	-12.6%	0.6	8.7%[15.4 µM]	1.2%	-0.8%
O=C(O)c1cc(-c2ccc(/C=C3\NC(=O)N(c4ccc(Cl)cc4)C3=O)o2)ccc1Cl	nt	26.1	4.7%	?	35.8%	50.1µM*	-12.8%
COc1ccccc1-c1cc(C(F)(F)F)nc(S(=O)(=O)CCCC(=O)O)n1	2.9	-2.8	7.3%	-2.3	-62.6%	-2.2%	-1.1%
O=C(C1CCN(S(=O)(=O)c2ccccc2[N+](=O)[O-])CC1)N1CCOCC1	nt	2.6	-6.0%	0.4	19.0%	24.6%	-0.8%
CCN(CC)CCC#CC1(O)c2ccccc2-c2ccccc21	1.5	4.6	7.2%	-0.6	16.9%[15.4 µM]	17.3%	1.1%
O=C(Cn1nc(C(=O)O)c2ccccc2c1=O)Nc1cccc(S(=O)(=O)N2CCCC2)c1	-14.1	-6.2	-10.8%	nt	-1.2%[15.4 µM]	nt	-2.8%
O=C(Oc1oc(-c2ccco2)nc1C=Nc1ccccc1)c1ccoc1	5.1	-16.9	-1.8%	0.5	-47.0%[inhibitor]	20µM*	-1.2%
COc1cc(C(=O)ON=C2C(C)=CC(=O)C=C2C)cc(OC)c1OC	3.7	12.4	-18.2%	0.6	?	0.4%	2.2%
O=C(COC(=O)c1ccco1)Nc1ccccc1[N+](=O)[O-]	-1.6	-4.7	12.9%	1.4	-17.8%[15.4 µM]	19.9%	nt
COc1cccc(CN2CCN(C3CCOCC3)CC2CCO)c1 (centres undefined)	0.8	-6.2	6.1%	4.1	1.5%[15.4 µM]	15.9%	nt
CCNc1nc(NCC)nc(N2CC(=O)N(CC(=O)OCC)C2=N)n1	0.0	nt	13.1%	nt	?	nt	-3.1%
CN1CCN(NC(=O)c2c(-c3ccccc3)sc3ccccc23)CC1	-5.5	nt	5.3%	nt	?	nt	-4.8%
Cc1ccccc1OCC(=O)OCC(=O)NCC1CCCO1 (centres undefined)	8.5	-1.1	1.8%	0.2	?	3.0%	nt

Printed as active in Sfp inh, among the entries above:
smiles,CtBP-E1A inh,Menin-MLL FL inh,gsp agonist,Sfp inh
O=C(O)c1cc(-c2ccc(/C=C3\NC(=O)N(c4ccc(Cl)cc4)C3=O)o2)ccc1Cl,nt,?,35.8%,50.1µM*
O=C(Oc1oc(-c2ccco2)nc1C=Nc1ccccc1)c1ccoc1,5.1,0.5,-47.0%[inhibitor],20µM*

Going on with the list:
SMILES	CtBP-E1A inh	TRPV1 potentiator	gsp antagonist	Menin-MLL FL inh	gsp agonist	Sfp inh	ClpP mod
CC(/C=C1\SC(=S)N(NC(=O)c2ccccc2C)C1=O)=C\c1ccccc1	4.7	-19.3	-0.4%	6.5	-8.7%	2.9%	-12.5%
Cc1ccc(Cl)c(NC(=O)CSc2n[nH]c(=O)n2C2CC2)c1Cl	nt	-9.7	3.9%	nt	9.0%	nt	0.8%
Cc1ccc(C)c(OC(=O)c2cccnc2Cl)c1C	11.1	-4.5	-1.0%	0.8	-29.6%	-3.5%	nt
O=C(COc1ccc2ccccc2c1)NCCc1ccc2c(c1)OCCO2	5.4	2.6	?	nt	-5.4%[15.4 µM]	-16.8%	-0.2%
O=S(=O)(c1ccccc1OC(F)(F)F)N1CCN(c2ccnc3cc(Cl)ccc23)CC1	-3.4	17.0	?	nt	?	3.4%	?
Cc1cccnc1CCNC(=O)CCc1nnc(-c2ccccc2)o1	-1.4	-3.4	-1.9%	3.7	4.6%[15.4 µM]	2.0%	nt
O=C(Cn1c(=O)c(=O)n(Cc2ccccc2)c2ccc(Cl)cc21)Nc1ccc(F)cc1F	2.8	-6.4	5.1%	4.5	-34.6%[inhibitor]	6.1%	-17.5%
O=C(COC(=O)Cc1ccccc1F)NCc1ccc(Cl)cc1	8.7	nt	9.8%	nt	17.4%	nt	nt
C[C@H](O)[C@@H]1C(=O)N2CCc3ccc(-c4ccccc4)cc3[C@@H]2C[C@@H]1N(C)C(=O)Nc1cc(Cl)cc(Cl)c1	-4.2	nt	-13.1%	nt	nt	nt	-4.4%
COc1ccc(CNC(=O)c2cccc(C)c2[N+](=O)[O-])cc1	-14.5	-4.8	0.8%	0.6	5.6%	4.8%	-1.5%
O=S1(=O)N=C(N(CCO)/N=C/c2ccccc2)c2ccccc21	nt	22.2	-5.5%	-7.2	1.7%[15.4 µM]	11.1%	nt
O=c1ccn(Cc2ccccc2)c(=O)n1Cc1ccccc1	9.2	1.3	9.2%	1.5	-22.1%	7.0%	0.4%
COc1ccc(Br)cc1CN(C)CC(=O)Nc1cc(Cl)ccc1Cl	11.6	7.6	-10.0%	4.6	?	0.9%	-0.9%
Cc1ccc(N2CC(C(=O)NCc3ccco3)CC2=O)cc1Cl (centres undefined)	1.7	-3.5	-3.9%	nt	?	-2.3%	0.1%
CC1CN(S(=O)(=O)c2cccc(C(=O)Nc3cc(Cl)ccc3N3CCOCC3)c2)CC(C)O1 (centres undefined)	-1.9	14.5	-7.7%	nt	16.9%	nt	-3.1%
O=C(NCc1ccccc1Cl)C(=O)NCC1OCCN1S(=O)(=O)c1cccs1 (centres undefined)	-0.6	6.6	?	1.2	1.3%[15.4 µM]	6.9%	nt
COc1ccccc1CNC(=O)C[C@@H]1C[C@H]2c3cc(NC(=O)c4ccc5c(c4)OCO5)ccc3O[C@H]2[C@@H](CO)O1	-19.0	nt	nt	nt	1.4%	nt	-0.6%
C=CCn1c(=NC(=O)C2CC2)sc2cc(NC(C)=O)ccc21	-2.5	?	-4.4%	-2.2	1.4%	6.9%	4.8%
NC(=O)c1ccccc1NC(=O)CCn1c(=S)oc2ccccc21	-4.0	3.3	-0.9%	8.4	7.1%[15.4 µM]	4.7%	nt
CS(=O)(=O)c1nc(-c2ccc(F)cc2)cc(C(F)(F)F)n1	-5.4	-0.5	-3.5%	2.8	-15.4%	?	nt
COc1ccc(/C=N/n2c(=O)[nH]c3c([nH]c4ccc(Br)cc43)c2=O)cc1CN1CCOCC1	-19.6	6.2	10.1%	-2.5	-15.8%	13.1%	-4.2%
O=C(OCC(=O)c1c[nH]c2ccccc12)C1=COCCO1	6.9	-1.8	-22.0%	-0.1	13.8%	-1.9%	0.6%
COc1ccc(C2C(C(=O)N3CCCC3)CC(=O)N2c2ccc(OC)cc2)cc1 (centres undefined)	0.4	1.8	-6.0%	0.9	10.6%	13.6%	-1.1%
COC(=O)c1c(SCc2cccc3ccccc23)nc(=O)[nH]c1C	-3.8	-9.3	-4.0%	-3.3	-1.9%[15.4 µM]	-0.3%	nt
CCOc1cc(N2CCOCC2)c(OCC)cc1NC(=O)c1cc(S(=O)(=O)N2CCOCC2)ccc1Cl	7.4	-30.2	-22.4%	nt	-15.9%	nt	-1.1%
Nc1nc(N)nc(-c2ccc(Cl)cc2)n1	7.8	12.1	0.4%	2.3	-24.3%	9.0%	-14.8%
COCCn1cnc2c1c(=O)n(CC(=O)OCC(=O)NCC(F)(F)F)c(=O)n2Cc1ccccc1	9.8	-7.2	0.7%	6.8	-3.9%	11.5%	-2.5%
CC(=O)C1CCCN(C(=O)c2ccc3oc(CCc4ccccc4)nc3c2)C1 (centres undefined)	4.5	-3.3	3.5%	0.1	-7.6%	5.9%	0.4%
CSc1ncccc1C(=O)N1CCCC(CCC(=O)NCc2ccc(F)c(F)c2)C1 (centres undefined)	8.4	-8.6	-6.2%	1.6	-12.8%[15.4 µM]	15.8%	nt
O=C(CNc1ccc(Cl)cc1)NNC(=S)NCc1ccccc1	3.7	14.2	9.2%	-2.1	-9.9%[15.4 µM]	4.5%	nt
O=C(NC1CCCCC1)c1cc(-c2ccc(O)cc2)on1	1.5	6.4	11.1%	0.4	-31.4%[inhibitor]	17.0%	nt
CCN(CC)CCN1C(=O)C(=O)/C(=C(/O)c2ccc(OC)cc2)C1c1cccs1 (centres undefined)	nt	15.5	nt	7.6	nt	-8.6%	nt
CC1CCCCC1N=C1NC(C)(C)CS1 (centres undefined)	16.6	-3.9	nt	-2.7	15.2%[15.4 µM]	-1.0%	nt
O=C(c1ccc(COc2ccccc2Br)o1)N1CCCCCC1	-14.2	-20.3	?	2.7	-36.2%[inhibitor]	-24.5%	1.8%
COC(=O)c1oc(-c2ccc(Cl)cc2)nc1C	5.9	5.5	-5.1%	-0.8	8.9%[15.4 µM]	-3.0%	-1.7%
